Screening data from PubChem.
XIAP displacement = XIAP antagonists, biochemical, IAP family, fluorescence polarization (AID 1018); XIAP BIR domain, fluorescence polarization peptide displacement; higher % means a stronger effect; displacement, % at 20 µM, or IC50 in µM where a hit was titrated; actives 0.007% (n = 200,000); in the data active means displacement above about 50%; further: a part of the inactive calls stands beside numbers as strong as those of hits
Dynein transport = blocks dynein driven cargo transport along microtubules; 3617.4 mouse cells, GR-EGFP nuclear translocation imaging; test concentration mostly 20 µM; stimulated with dexamethasone, 1 µM; stronger effect = lower value; z-score, hits read low; actives 0.47% (n = 220,000);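 active means plate z-score of nuclear minus cytoplasmic receptor signal below a set negative limit, without overly bright fluorescence or cell loss, cut at about -3.5 in these data, passing the limit was not always enough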;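 further: z-score of nuclear minus cytoplasmic ring GR-EGFP intensity difference per well; some compounds called inactive have numbers as strong as hits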
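Buffer or medium – tet-free medium with charcoal-stripped serum · Signal – automated 10x imaging of fixed Hoechst-stained cells · Also added – dexamethasone agonist, 1.0 µM final, for 30 min · Incubation – induction 48 h, compound 1 h, agonist 30 min · Read-out – GR-EGFP nuclear translocation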
ER stress rescue = rescue of cells from ER stress-induced death, primary screen, 384-well, CSM14.1, thapsigargin, ATP luminescence (AID 1222) | CSM14.1 thapsigargin-induced death rescue, ATP luminescence; higher % means a stronger effect | cellular ATP content (survival), % at 20 µM, or EC50 in µM where a hit was titrated | 190,000 tested, under 10 active;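 active means EC50 below 50 µM in the dose-response confirmation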;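 further: death triggered by thapsigargin at about 15 µM added after 2 h compound pretreatment; cell ATP read after overnight thapsigargin exposure of roughly 18 to 22 hours; normalized against plate controls of thapsigargin alone and 5% DMSO vehicle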
Insulin prom up = MIN6 insulin promoter up-regulation; actives 0.3% (n = 190,000); AID 1625; MIN6 insulin promoter-GFP reporter, high-content imaging; stronger effect = higher value; z-score at 5 µM;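 active means z-score above 3 at 5 µM with at least 500 cells counted in the well; inconclusive means wells under 500 cells, flagged as cytotoxic or low count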
WT yeast gro inh = growth inhibition of WT yeast, mitochondrial fusion screen; inhibition, % at 10 µM; mitochondrial fusion phenotypic screen, WT strain; actives 2.1% (n = 190,000); AID 1362; in the data active means inhibition above about 58%; tested in S. cerevisiae
MT stabilizer = microtubule stabilization, imaging screen; HeLa tubulin immunostaining HCS, 24 h; share of cells brighter than vehicle mean+2SD; % tubulin-high responders, % at 10 µM; actives 0.83% (n = 200,000); AID 2205;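 active means plate Z-score above 3 for both tubulin-high and condensed-nucleus cell shares, with cell loss under 80%, at 10 µM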;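 further: anti alpha tubulin signal scored within the nucleus-defined area of each cell; some results filed as inactive read as strong as hits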
Hep lipid drop = modulators of hepatic lipid droplet formation; AML12 mouse hepatocytes, oleate lipid droplets, BODIPY imaging; inhibition, % at 6.5 µM; actives 0.4% (n = 240,000); AID 1656;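 active means lipid droplet intensity inhibited by at least 50%, with more than 500 cells counted; inconclusive means wells with under 300 cells, treated as cytotoxic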
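Test system: AML12 hepatocytes (mouse); reagent: oleate loading, 100 µM; dosing: one dose, 6.5 µM compound; incubation: overnight exposure; signal: fluorescence imaging, 20x objective, two fields per well; read-out basis: % inhibition of corrected integrated BODIPY droplet signal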
WT yeast gro inh mutant strain = second read-out of WT yeast gro inh, no call of its own (marks repeat the call); inhibition, %; mitochondrial fusion phenotypic screen, mutant strain inhibition
Dynein transport cytoplasmic EGFP = also measured in Dynein transport; calls as there; z-score; measured here: cytoplasmic GR-EGFP intensity; stronger effect = higher value
Dynein transport nuclear GR-EGFP = second read-out of Dynein transport, no call of its own (marks repeat the call); z-score; measured here: nuclear GR-EGFP intensity;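 lower value marks the stronger effect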
Dynein transport cell count = second read-out of Dynein transport, no call of its own (marks repeat the call); z-score; measured here: cell count per field
Insulin prom up cell count = second read-out of Insulin prom up, no call of its own (marks repeat the call); cell count; measured here: cytotoxicity, nuclei count;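 total cells summed across four imaged fields per well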
Hep lipid drop cells 6.5 µM = recorded beside Hep lipid drop, whose call it bears; cell count; measured here: cell count, cytotoxicity flag;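 cells counted across two imaged fields per well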
MT stabilizer Hoechst-high % = recorded beside MT stabilizer, whose call it bears; % Hoechst-high responders; measured here: nuclear condensation Hoechst responders;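 share of cells brighter than vehicle mean plus two SD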
MT stabilizer cytotoxicity % = second read-out of MT stabilizer, no call of its own (marks repeat the call); toxicity, %; measured here: cytotoxicity by cell density;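 0% = mean cell density of plate MIN control wells and 100% = no cells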
The depositor's hits bear a star; ? = inconclusive; nt = not tested or not shown. These rows are one share of the data; count on the stated rates, not on these rows.

SMILES	XIAP displacement	Dynein transport	Dynein transport cytoplasmic EGFP	Dynein transport nuclear GR-EGFP	Dynein transport cell count	ER stress rescue	Insulin prom up	Insulin prom up cell count	WT yeast gro inh	WT yeast gro inh mutant strain	MT stabilizer	MT stabilizer Hoechst-high %	MT stabilizer cytotoxicity %	Hep lipid drop	others
CC(C)CCC1(CN2CCCC2=O)C(=O)NC(=O)NC1=O	-0.8%	1.52	-0.239	-0.535	-0.411	-0.8%	-0.02	1529	5.9	-1.2	2.9	1.3	6.5	nt
O=[N+]([O-])c1ccc(N2CCNCC2)cc1NCC1CCCO1 (configuration not stated)	-1.0%	-1.01	-0.176	-0.487	0.843	-2.1%	2.89	1496	4.2	-4.6	2.0	2.4	7.2	nt
CC1=CC(=Cc2sc3ccccc3[n+]2C)C=C(C)O1	0.9%	-0.172	1.72	0.167	-0.454	-0.1%	?	nt	65.7*	63.1*	2.5	0.3	19.0	-24.4	Hep lipid drop cells 6.5 µM=558
CCCCC/C(=N\O)c1c[nH]c2ccccc12	1.1%	-1.43	0.362	-0.487	-0.183	0.1%	-0.55	1660	14.1	31.7	2.8	2.6	8.5	nt
CCOC(=O)c1cncn1C(C)c1ccccc1 (configuration not stated)	-2.4%	0.922	-0.132	1.33	-0.805	-0.5%	-0.71	1298	0.2	6.4	2.7	2.2	12.2	nt
O=[N+]([O-])c1ccc(C2C3C(c4ccccc4)=NC4(CCCCC4)N32)cc1 (configuration not stated)	-1.3%	-0.145	-0.085	0.291	-0.036	-1.4%	nt	nt	44.6	2.4	1.4	2.0	6.0	nt
CC(C)Oc1cccc(C(=O)C2CCCN(C3CCOCC3)C2)c1 (configuration not stated)	-4.3%	-0.872	-0.256	-0.319	0.669	-0.7%	-0.35	1627	-13.7	13.9	2.1	1.5	8.7	4.4	Hep lipid drop cells 6.5 µM=655
CCCC(=O)NC(Oc1ccc(Cl)cc1Cl)C(Cl)(Cl)Cl (configuration not stated)	-15.5%	-0.27	-0.186	-0.385	-0.686	0.0%	0.73	1618	-3.6	0.7	2.1	1.7	3.5	nt
C=C(C)CSc1nnc([C@@H](N)Cc2c[nH]c3ccccc23)o1	-6.9%	0.966	-0.187	0.418	-0.67	-2.7%	-0.26	1200	5.2	-9.7	2.6	1.8	1.2	nt
CCCCCn1c(N)c(C(=O)NCc2cccs2)c2nc3ccccc3nc21	-3.9%	-0.223	-0.248	-0.864	0.414	-0.9%	0.02	1438	-1.0	-3.8	2.9	2.0	2.4	nt

Looked up one by one from the entries so far (two):
SMILES	XIAP displacement	Dynein transport	Dynein transport cytoplasmic EGFP	Dynein transport nuclear GR-EGFP	Dynein transport cell count	ER stress rescue	Insulin prom up	Insulin prom up cell count	WT yeast gro inh	WT yeast gro inh mutant strain	MT stabilizer	MT stabilizer Hoechst-high %	MT stabilizer cytotoxicity %	Hep lipid drop	others
CCOC(=O)c1cncn1C(C)c1ccccc1 (configuration not stated)	-2.4%	0.922	-0.132	1.33	-0.805	-0.5%	-0.71	1298	0.2	6.4	2.7	2.2	12.2	nt
O=[N+]([O-])c1ccc(C2C3C(c4ccccc4)=NC4(CCCCC4)N32)cc1 (configuration not stated)	-1.3%	-0.145	-0.085	0.291	-0.036	-1.4%	nt	nt	44.6	2.4	1.4	2.0	6.0	nt

Of the compounds above, 2 contain an NH in an aromatic ring:
SMILES	XIAP displacement	Dynein transport	Dynein transport cytoplasmic EGFP	Dynein transport nuclear GR-EGFP	Dynein transport cell count	ER stress rescue	Insulin prom up	Insulin prom up cell count	WT yeast gro inh	WT yeast gro inh mutant strain	MT stabilizer	MT stabilizer Hoechst-high %	MT stabilizer cytotoxicity %	Hep lipid drop	others
CCCCC/C(=N\O)c1c[nH]c2ccccc12	1.1%	-1.43	0.362	-0.487	-0.183	0.1%	-0.55	1660	14.1	31.7	2.8	2.6	8.5	nt
C=C(C)CSc1nnc([C@@H](N)Cc2c[nH]c3ccccc23)o1	-6.9%	0.966	-0.187	0.418	-0.67	-2.7%	-0.26	1200	5.2	-9.7	2.6	1.8	1.2	nt
